# gsp antagonist: qHTS for Antagonists of gsp, the Etiologic Mutation Responsible for Fibrous Dysplasia/McCune-Albright Syndrome: qHTS | gsp-mutant cells, cAMP HTRF, 30 min; control for the full effect not named in the record | Potency, µM (highest dose often 76.9 µM), for inactives: at the top dose activity change, negative = inhibition, usual class: inhibitors | 340,000 compounds, 0.4% hits | AID 624288, 2012; active = falling curve of any shape with a large fitted effect; inconclusive = falling curve, mostly with a smaller effect; inactive = flat or rising curve; cell line not stated here;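 further: intracellular cAMP measured with PDE inhibitor Ro 20-1724 present during compound exposure; potency means the concentration at half of the fitted maximal effect; on the % scale 0 is the no-effect control and ±100 the full control effect; nearly all actives have a fitted effect of over 65% in size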
#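 G418-selected cells were plated in DMEM/10% FBS for 16-24 h at 37C, then treated with compounds plus the PDE inhibitor […] (300 uM solution added) for 30 min at 37C. Intracellular cAMP was measured by HTRF after 30 min lysis at room temperature.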
# D2 ag: Beta-Arrestin HTS for Positive Allosteric Modulators of the Human D2 Dopamine Receptor: Agonists | 360,000 compounds, 0.084% hits | DiscoveRx PathHunter D2 beta-arrestin, luminescence, 90 min; 100% = 57 uM dopamine signal | AID 624465, 2012 | D(2) dopamine receptor (Homo sapiens), P14416 | activation, % (concentration not given with the values); in the data active = activation above about 40%; inconclusive = about 15% to 40%; inactive = below about 15%; further: the text of the record calls up to 30% inactive
#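 DiscoveRx PathHunter D2 beta-arrestin cells (2,100/well) attached overnight, then compound-stimulated 90 min at 37 C in HBSS/10 mM HEPES/0.1% Tween-20 buffer; beta-galactosidase complementation read by luminescence after 1 h at ambient temperature. Dopamine 57 uM final (EC100) as control.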
# D2 PAM: Beta-Arrestin HTS for Positive Allosteric Modulators of the Human D2 Dopamine Receptor: Potentiators | D(2) dopamine receptor (Homo sapiens), P14416 | DiscoveRx D2 beta-arrestin cells, luminescence, 90 min; 100% = 57 uM dopamine signal | 360,000 compounds, 0.23% hits | potentiation, % (no concentration beside the values); active = potentiation of 50% or more; inconclusive = 30% to 50%; inactive = 30% or less;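 further: compound concentration not given in the record; tested on top of an EC20 dose of dopamine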
#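 PathHunter D2 cells, attached overnight at 37 deg C, received compound in DMSO plus dopamine at EC20 (50 nM final) for 90 min at 37 deg C. Beta-arrestin recruitment was read as luminescence after 1 h with detection reagent at ambient temperature.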
# CtBP-E1A inh: qHTS Assay for Inhibitors of the CtBP/E1A Interaction; CtBP / adenovirus E1A interaction (AlphaScreen); activity change, % (test concentration not listed); 340,000 compounds, 0.49% hits; AlphaScreen GST-E1A/His-CtBP binding, 1536-well; hits give low values; control for the full effect not named in the record; AID 651724, 2012; in the data active means activity change below about -65%; inconclusive means about -30% to -65%; inactive means above about -30%; further: on the % scale 0 is the no-effect control and ±100 the full control effect
#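 GST-E1A and His-tagged CtBP (125 nM each as 5X stock) were preincubated with pin-transferred compound for 2 h at 37 °C in the dark, then glutathione donor and nickel acceptor beads were added for 1 h before AlphaScreen reading.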
# gsp ag: qHTS for Agonist of gsp, the Etiologic Mutation Responsible for Fibrous Dysplasia/McCune-Albright Syndrome: qHTS; gsp mutant cells, cAMP HTRF, 30 min; control for the full effect not named in the record; Potency, µM (series often up to 76.9 µM), for inactives: top-dose activation (cAMP increase), most hits filed as activators; 340,000 compounds, 0.13% hits; AID 624287, 2012; active = well fitted activation curve with a large enough effect; inconclusive = small, poorly fitted or top-dose-only effect, or another doubt; inactive = no such curve, though single readings can be large or run the other way; cell line not stated here;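 further: phosphodiesterase inhibitor Ro 20-1724 added with compounds to block cAMP breakdown; potency means the concentration at half of the fitted maximal effect; nearly all actives have a fitted effect of over 60% in size; about a fifth of the inactives were tested at one dose only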
#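 Cells stably selected in G418 were plated at 2000/well, grown 16-24 hr, then given compounds in DMSO with the PDE inhibitor […] (300 uM solution added) for 30 min at 37C; cAMP was read by HTRF.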
# Six1-Eya2 blk: qHTS Assay for Inhibitors of the Six1/Eya2 Interaction; Homeobox protein SIX1 (Homo sapiens) + Protein phosphatase EYA2 (Homo sapiens), …; AlphaScreen GST-Six1/His-Eya2 binding, biochemical; hits give low values; control for the full effect not named in the record; activity change, % (no concentration beside the values); 360,000 compounds, 0.56% hits; AID 651725, 2012; in the data active = activity change below about -65%; inconclusive = about -30% to -65%; inactive = above about -30%; further: on the % scale 0 is the no-effect control and ±100 the full control effect
# Target sequence (O00167 whole entry, looked up): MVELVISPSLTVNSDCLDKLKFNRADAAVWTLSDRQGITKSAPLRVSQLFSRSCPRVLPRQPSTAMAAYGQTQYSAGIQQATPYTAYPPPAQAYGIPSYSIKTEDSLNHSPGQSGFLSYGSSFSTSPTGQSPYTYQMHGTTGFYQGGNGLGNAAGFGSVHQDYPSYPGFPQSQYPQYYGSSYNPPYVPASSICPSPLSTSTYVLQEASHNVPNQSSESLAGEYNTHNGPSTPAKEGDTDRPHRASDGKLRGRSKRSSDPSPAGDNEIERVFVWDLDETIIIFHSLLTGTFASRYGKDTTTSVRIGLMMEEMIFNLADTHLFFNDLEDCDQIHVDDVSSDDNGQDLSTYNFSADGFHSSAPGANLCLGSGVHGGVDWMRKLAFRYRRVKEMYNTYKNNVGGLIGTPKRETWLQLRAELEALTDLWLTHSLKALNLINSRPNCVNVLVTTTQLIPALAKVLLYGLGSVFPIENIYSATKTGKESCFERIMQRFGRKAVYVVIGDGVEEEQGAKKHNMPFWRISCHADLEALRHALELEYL
# Target sequence (Q15475 whole entry, looked up): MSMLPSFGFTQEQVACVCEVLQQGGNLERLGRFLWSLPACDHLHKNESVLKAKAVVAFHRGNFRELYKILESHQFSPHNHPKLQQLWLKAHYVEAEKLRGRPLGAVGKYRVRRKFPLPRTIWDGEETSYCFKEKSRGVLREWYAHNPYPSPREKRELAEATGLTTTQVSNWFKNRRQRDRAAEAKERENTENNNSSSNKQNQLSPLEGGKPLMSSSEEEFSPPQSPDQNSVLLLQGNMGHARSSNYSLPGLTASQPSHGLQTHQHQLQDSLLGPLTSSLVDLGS
#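 AlphaScreen luminescence read after one hour at 37 °C in darkness. Pin-transferred compounds met GST-Six1 and His-Eya2 protein (5X stock 250 nM/500 nM) plus glutathione donor and Ni-chelate acceptor beads (5X, 50 ug/mL).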
# * = called active by the depositor; ? = inconclusive; / = not tested or not shown; [ ] = another dose, or the depositor's remark.
canonical_smiles	Six1-Eya2 blk	D2 ag	D2 PAM	CtBP-E1A inh	gsp antagonist	gsp ag
COc1ccccc1-n1cc(C(=O)N2CCCC(CO)(Cc3ccccc3C)C2)cn1 (stereo not drawn)	-8	-0.4	-7	-7	-16%	0%[15.4 µM]
CN(C)S(=O)(=O)c1cccc(-c2cn3cc(Cl)ccc3n2)c1	-6	1.7	-2	-2	-29%	?
Cc1cc(N2CCN(C(=O)c3cccs3)CC2)c(F)cc1[N+](=O)[O-]	-9	-1.7	1	-7	?	-37%[inhibitor]
NC1=NC[C@H](Cc2ccc(O)cc2)N1CCc1cccc(F)c1	-1	-2.4	-8	/	13%	?
Cc1c(CN2CCN(CC(C)(C)C)C(CCO)C2)[nH]c2ccccc12 (stereo not drawn)	-2	0.8	-24	/	3%	-18%
O=C(OCc1cc(=O)n2c(n1)sc1ccccc12)c1ccc2c(=O)n3c(nc2c1)CCC3	-7	0.2	-2	-3	17%	-4%
Cc1ccc2c(c1)C1C3CCC(C3)C1S(=O)N2 (stereo not drawn)	-10	-2.6	-26	-13	8%	-17%[15.4 µM]
COc1cccc(/C=N/N2C(=O)CSC2=S)c1O	-90*	4.9	-2	-13	-8%	10%
CCOc1cc(C(=O)Nc2ccc3c(c2)OCO3)ccc1OCCOc1ccccc1Cl	-1	3.4	-9	7	8%	-3%
CCn1c(SCC(=O)N2CCCc3ccccc32)nnc1-c1ccco1	5	-2.0	1	3	3%	-27%

canonical_smiles	Six1-Eya2 blk	D2 ag	D2 PAM	CtBP-E1A inh	gsp antagonist	gsp ag
CCOC(=O)C(NCc1ccccc1OC)(NC(C)=O)C(F)(F)F (stereo not drawn)	2	-3.6	0	0	2%	?
Cc1ccc(S(=O)(=O)Nc2ccc(Oc3cccnc3)nc2)cc1	-13	-4.5	-5	-20	3%	10%[15.4 µM]
CCC(=O)c1ccccc1OCCCCn1cncn1	2	-2.2	-7	/	0%	-93%[inhibitor]
C[C@H](CO)N1C[C@H](C)[C@@H](CN(C)C(=O)Nc2ccccc2)Oc2c(NC(=O)Nc3ccc(C(F)(F)F)cc3)cccc2C1=O	4	3.4	-4	-5	?	/
O=C(NCCc1ccccc1)C(=O)NCC1OCCN1S(=O)(=O)c1ccc(Br)cc1 (stereo not drawn)	1	11	-4	/	-10%	?
c1cn2cc(CN3CCOCC3)nc2s1	2	-1.8	-5	2	11%	-1%
O=S(=O)(NCCc1c[nH]c2ccccc12)c1ccc(F)cc1	7	0.3	-1	4	-6%	-10%
O=C(C1CCC(CNS(=O)(=O)c2cccc3nsnc23)CC1)N1CCN(c2ccccn2)CC1 (stereo not drawn)	-7	0.7	0	-11	-14%	-3%
CCCOn1c(OCC(C)C)nc2ccccc2c1=O	-13	-5.5	-14	14	-3%	-32%[inhibitor]
Cc1ccccc1N1CCN(Cc2cccc(C(=O)O)c2)CC1	-7	-1.4	-24	-14	-2%	-19%

# Six1-Eya2 blk: what is marked active above.
canonical_smiles	Six1-Eya2 blk	D2 ag	D2 PAM	CtBP-E1A inh	gsp antagonist	gsp ag
COc1cccc(/C=N/N2C(=O)CSC2=S)c1O	-90*	4.9	-2	-13	-8%	10%

# More entries follow:
canonical_smiles	Six1-Eya2 blk	D2 ag	D2 PAM	CtBP-E1A inh	gsp antagonist	gsp ag
O=C(CN1CCc2cc3c(cc2C1)OCCCO3)Nc1ccccc1	1	-3.5	-59	3	-12%	/
COc1ccc(Oc2nc3c(c(=O)n(C)c(=O)n3C)n2Cc2cccc(OC)c2)cc1	4	-0.7	7	3	-4%[15.4 µM]	?
Cc1ccc(S(=O)(=O)N2CCOC2CNC(=O)C(=O)NCc2ccccn2)cc1 (stereo not drawn)	-5	0.3	12	-14	-8%	0%
CCC1NC(=O)c2cccnc2-n2c1nc1ccc(F)cc1c2=O (stereo not drawn)	0	-9.5	1	1	/	1%
Cn1c(/C(C#N)=C(\O)c2ccc(S(=O)(=O)N3CCCCC3)cc2)nc2ccccc21	-5	1.1	1	1	?	-116%[inhibitor]
Cc1ccccc1Nc1n[nH]c(=S)s1	-2	-3.0	-24	-6	/	-16%
O=C(N/N=C/c1c[nH]c2ccc(Br)cc12)c1ccn(Cc2ccc(Cl)cc2Cl)n1	-7	4.0	12	-14	-4%	3%
COc1cc(C2SCC(=O)N2CCCN(C)C)cc(OC)c1OC (stereo not drawn)	11	0.8	-11	-3	6%	2%
c1ccc([C@H]2CN3CCSC3=N2)cc1	6	-4.5	-8	4	-2%	/
CCN(CC(=O)NCc1ccc(Cl)cc1)C(=O)Cc1ccc(OC)cc1	7	-0.9	-3	4	-5%	-27%

canonical_smiles	Six1-Eya2 blk	D2 ag	D2 PAM	CtBP-E1A inh	gsp antagonist	gsp ag
COc1cccc(-c2ocnc2C(=O)Nc2ccc(N3CCOCC3)cc2N2CCOCC2)c1	-26	-3.5	-1	-7	?	-5%
CC(=O)Nc1ccc2c(c1)C(=O)c1cccc(C(=O)O)c1-2	-2	-3.2	-12	0	6%	-1%
CC(C)(CC(=O)O)CC(=O)NNc1ncccc1C#N	-1	-3.4	-5	4	9%	14%[15.4 µM]
Cc1ccccc1N1C(S)=C(C#N)C(=O)NC1c1cccs1 (stereo not drawn)	4	-2.5	2	4	5%	-1%
CC(OC(=O)c1ccc2noc(-c3ccccc3)c2c1)C(N)=O (stereo not drawn)	1	8.3	28	0	-31%	?
COc1cc(S(=O)(=O)NCc2ccccn2)c(OC)cc1Cl	3	0.7	2	-1	6%	-37%[inhibitor]
CCCc1cc(=O)oc2cc(OCC(=O)Nc3ccc4c(c3)OCCO4)ccc12	3	-1.9	16	7	-6%	-3%
CCC(C)NC(=O)COc1ccc(S(=O)(=O)N2CCOCC2)cc1 (stereo not drawn)	0	-2.5	5	4	-6%	-57%
CCN1CCCC1CNCc1cccc(OC)c1OCc1ccccc1F (stereo not drawn)	4	-2.3	-17	8	4%	10%
O=C(Cc1cccc2ccccc12)NN1C(=O)C2C(C1=O)C1C=CC2C12CC2 (stereo not drawn)	3	-2.8	-14	-19	14%	-42%[inhibitor]

canonical_smiles	Six1-Eya2 blk	D2 ag	D2 PAM	CtBP-E1A inh	gsp antagonist	gsp ag
O=C(N/N=C/c1ccc[nH]1)c1cccnc1	-13	0.4	-5	-8	6%	-30%
CCN1c2ccc(S(=O)(=O)N3CCOCC3)cc2N(Cc2ccc(OC)cc2)C1C (stereo not drawn)	0	0.2	-1	5	9%	6%
COc1cccc(OC)c1C(=O)NNC(=O)c1cccc(COc2ccc3c(c2)CCC3)c1	-16	-3.9	-34	-4	?	-25%
Cn1c(CN2CCOCC2)nnc1SCc1cccc(F)c1	12	-17	-8	-3	9%	-10%
COc1ccccc1OCC(=O)NCC1CCCCC1	7	-3.2	-6	6	0%	16%
COc1ccccc1C(=O)NCC(=O)N1CC=C(c2ccccc2)CC1	-2	2.0	-13	19	2%	1%
CN(C)C(CNC(=O)C1CCCN(C(=O)c2ccc(Cl)cc2)C1)c1ccco1 (stereo not drawn)	7	-2.0	-26	9	17%	3%
C=CCNc1ncnc2c1ncn2[C@H]1CN(CCN2CCOCC2)C[C@@H](CO)O1	3	-5.7	-17	10	/	/
Cc1cccc(NC(=O)/C(C#N)=C/c2ccc(Cl)cc2)n1	-1	-1.0	-12	/	6%	2%
O=C(Cn1nc(C(=O)O)c2ccccc2c1=O)Nc1ccccc1C(F)(F)F	-10	0.0	-31	0	-16%	-20%[15.4 µM]

canonical_smiles	Six1-Eya2 blk	D2 ag	D2 PAM	CtBP-E1A inh	gsp antagonist	gsp ag
COc1ccccc1N1CCN(C(=O)c2ccc([N+](=O)[O-])s2)CC1	1	4.1	6	-20	-2%	-15%
COc1ccc(CCc2nnc(N)s2)cc1OC	2	-3.2	0	7	13%	-1%
Cc1ccc(S(=O)(=O)NC2(C(F)(F)F)C(=O)Nc3c2c(=O)n(C)c(=O)n3C)cc1 (stereo not drawn)	3	-1.7	-6	-13	3%	-29%
Cc1ccc(Nc2c([N+](=O)[O-])c(=O)oc3ccccc23)cc1C	-2	-7.3	-14	-27	?	-18%
Cc1[nH]c2ccccc2c1C(=O)C(=O)N1CCN(C(=O)c2ccco2)CC1	3	5.3	1	7	6%	12%[15.4 µM]
COc1ccc(CNC(=O)CCC(=O)c2ccc(C)cc2)cc1OC	3	-5.3	-10	1	5%	-27%
CCCN(CCC)C(=O)CSc1nc2ccsc2c(=O)n1NC(=O)c1ccccc1	-19	-1.7	-14	?	-8%	-11%
Cn1c(C(=O)O)c(S(=O)(=O)c2ccc(Cl)cc2)c2ccccc21	2	-2.8	-10	-11	-3%	26%
O=C(N/N=C/c1cccnc1)c1ccc(NC(=O)c2ccc(Cl)cc2)cc1	-29	-1.7	-7	-2	9%	-4%[15.4 µM]
CN1CCCC(OC(=O)c2cc(Br)ccc2Cl)C1 (stereo not drawn)	0	0.6	-37	-3	-6%	-35%[inhibitor]

canonical_smiles	Six1-Eya2 blk	D2 ag	D2 PAM	CtBP-E1A inh	gsp antagonist	gsp ag
Cc1cc(C)c(S(=O)(=O)N2CCN(C(=O)CCn3nc(C)c(C)c3C)CC2)c(C)c1	7	0.3	-1	0	-2%	-3%[15.4 µM]
Cc1ccc(C)n1-c1cccc(NC(=O)c2ccccc2)c1	1	-1.5	-18	-1	1%	?
CN(CC(=O)NCCN1CCCCCC1)S(=O)(=O)c1cccc2nsnc12	2	-3.0	-2	-20	-9%	-2%
O=C(Nc1ccc(Cl)c(Cl)c1)Nc1ccc(Br)cc1F	11	6.0	-15	16	-16%	-7%
N=C(N)c1ccc(O)cc1	-2	0.5	-4	6	-8%	-6%[15.4 µM]
COc1ccccc1/C=N/NC(=O)CNC(=O)c1ccc(S(=O)(=O)N(C)C)cc1	2	-3.2	-7	0	0%	8%
Cc1nc2ccccn2c1P(=O)(N1CCCCC1)N1CCCCC1	3	-1.7	-2	9	-6%	-21%
CCC(=O)c1ccc(OCC(=O)Nc2ccc(N3CCOCC3)cc2N2CCOCC2)cc1	-1	-1.0	4	2	11%	?
C/C(=N\NC(=O)c1cccnc1)c1ccccc1	0	0.2	0	2	10%	0%[15.4 µM]
C/C=C(\C)C(=O)NCCN1C2=NC[C@@H](Cc3ccccc3)N2C[C@H]1Cc1ccc(O)cc1	-4	-3.6	-20	2	5%	11%
N#CC1(NC(=O)CSc2nnc(C3CC3)n2N)CCCCC1	11	1.4	-4	3	/	?
COc1ccccc1Cc1c(-c2ccc(C#N)cc2)nc2ccc(Br)cn12	3	-5.2	-13	-2	/	/

# An unsorted share of the library; any-hit rate near 1.4%.
